NPYLR7 ag: activates Aedes aegypti NPYLR7 receptor; AID 1259423; 270,000 compounds, 0.15% hits; activation, % at 10 µM; HEK293T NPYLR7/Galpha15, GCaMP6s calcium fluorescence; in the data active means activation above about 40%;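 further: 0% = vehicle and 100% = reference agonist at the receptor; some compounds past the cut are filed as inactive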
NPYLR7 ag max-min: also measured in NPYLR7 ag; calls as there; activation, %; measured here: Max-Min RFU normalised activation; some inactives read as strong as hits;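 span of the calcium signal over five minutes; 0% = vehicle and 100% = native peptide agonist; compound fluorescence can raise it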
The depositor's hits bear a star; & = joins results of further samples.

The opening 5 entries, ahead of the listing:
Structure	NPYLR7 ag max-min	NPYLR7 ag
COc1ccc(C(=O)N2C(C(=O)NCc3ccncc3)COC23CCN(C(=O)c2cccc(Cl)c2)CC3)cc1 (stereo not given)	18	19
Cc1cc(C)cc(C(=O)NNC(=O)c2ccc(F)cc2)c1	4	10
COCCN(Cc1ccccc1F)Cc1cccn1Cc1cccc(C)c1	8	2
C=C(C)Cn1c(SCC(=O)N/N=C\c2ccco2)nnc1-c1ccc(Br)cc1	-9	2
Cc1c(-c2ccc(C#N)cc2)oc2ccc(F)cc2c1=O	-8	-4

All compounds of this part (from the top)
Structure	NPYLR7 ag max-min	NPYLR7 ag
COc1ccc(C(=O)N2C(C(=O)NCc3ccncc3)COC23CCN(C(=O)c2cccc(Cl)c2)CC3)cc1 (stereo not given)	18	19
Cc1cc(C)cc(C(=O)NNC(=O)c2ccc(F)cc2)c1	4	10
COCCN(Cc1ccccc1F)Cc1cccn1Cc1cccc(C)c1	8	2
C=C(C)Cn1c(SCC(=O)N/N=C\c2ccco2)nnc1-c1ccc(Br)cc1	-9	2
Cc1c(-c2ccc(C#N)cc2)oc2ccc(F)cc2c1=O	-8	-4
COc1ccc(Cl)cc1NC(=O)N1CCC(c2nc3ccccc3[nH]2)CC1	-4	-3
CCc1nc2c(OCc3ccc(Cl)cc3Cl)cccn2c1N(C=O)Cc1ccc(OC)cc1	-11	-19
CCCC1CCc2sc(C(=O)N3CCc4c(nc[nH]c4=O)C3)cc2C1 (stereo not given)	3	8
CCOc1ccc(S(=O)(=O)c2cn(Cc3ccccc3C)c3cc(OC)c(OC)cc3c2=O)cc1	-12	-7
O=C(c1ccc([N+](=O)[O-])cc1Cl)N(Cc1cccc(OS(=O)(=O)c2ccc(F)cc2)c1)Cc1ccco1	21	20
CCCc1ccc(OCC(=O)NNC(=O)COc2cc(C)c(Cl)c(C)c2)cc1	-7	-2
O=C(Cc1cccs1)NCCn1nc(-c2ccncc2)ccc1=O	4	14
CC(C)CC(=O)Nc1ccc(NC(=O)c2cnn3ccccc23)cc1	-2	-1
O=C(CNC(=O)c1ccc(Cl)cc1Cl)Nc1cccnc1	4	9
COc1cccc(-n2nnc3c(SCC(N)=O)ncnc32)c1	17	16
COc1ccc(OC)c(CCNc2nc3cnc(-c4ccc5c(c4)OCO5)cc3n2C)c1	56*	71*
CC(=O)c1ccc(C(=O)N2CCc3c(cc(-c4ccccc4F)c(=O)n3Cc3ccncc3)C2)cc1	3	13
CCOC(=O)CNC(=O)N(C)CC1CCCN(CCc2ccccc2OC)C1 (stereo not given)	3	14
Cc1ncc2c(c1CNS(=O)(=O)c1cccs1)CCN(C(=O)/C=C/c1cc(F)cc(F)c1)C2	19	30
COc1cccc(OCC(O)CNC(=O)c2ccc3nc(C4CC4)oc3c2)c1 (stereo not given)	-8	-1
Cc1cc(-n2c(C)cc(/C=C/C(=O)N3CCCCCC3)c2C)no1	1	1
COc1ccc(-c2ccc(/C=C3/NC(=S)NC3=O)o2)cc1[N+](=O)[O-]	-22	-19
COc1ccc2cc(C(=O)Nc3ccccc3F)c(=N)oc2c1	-6	-1
Cc1ccc(-c2cc(C(F)(F)F)n3ncc(C(=O)NCc4ccc5c(c4)OCO5)c3n2)cc1	4	3

Reformatted: entries from further up
Cc1ncc2c(c1CNS(=O)(=O)c1cccs1)CCN(C(=O)/C=C/c1cc(F)cc(F)c1)C2
  NPYLR7 ag max-min: 19 | NPYLR7 ag: 30
COc1cccc(OCC(O)CNC(=O)c2ccc3nc(C4CC4)oc3c2)c1 (stereo not given)
  NPYLR7 ag max-min: -8 | NPYLR7 ag: -1

Continued.
Structure	NPYLR7 ag max-min	NPYLR7 ag
COc1cccc(NC2CC(=O)N(c3ccc(Cl)c(Cl)c3)C2=O)c1 (stereo not given)	4	4
CN1CCN(c2nc(Nc3cccc(O)c3)nc3ccccc23)CC1	-8	-4
COCc1nn(CC(=O)Nc2ccccc2)c(=O)o1	0	2
CN1C(=O)CC(C(=O)Nc2cc(C(C)(C)C)on2)C1c1cccnc1 (stereo not given)	-9	-8
Cc1ccc(-n2nnc3c(=O)n(CC(=O)N(C)c4ccccc4)cnc32)cc1C	-7	-2
CCCC(C)(C)NC(=O)CS(=O)(=O)N1CCN(c2cccc(C)c2)CC1	4	6
C=Cc1cccc(CN2CCC3(CC2)CCN(C(=O)COC)CC3)c1	10	-2
Cc1ccccc1C(=O)Nc1ccccc1C1SCC(=O)N1c1ccccc1C(C)C (stereo not given)	5	0
CN(C)CC(=O)N1c2ccccc2CCc2ccc(NC(N)=O)cc21	-11	-8
Cc1cc(OC(=O)Cc2cccc3ccccc23)c([N+](=O)[O-])c(=O)[nH]1	-5	-5
CCN1CCCC1CNC(=O)NC1CC(=O)N(c2ccc(C)cc2)C1 (stereo not given)	7	7
CCOc1c(C)cnc2c1c(=O)n(Cc1ccc(C(=O)OC)o1)c(=O)n2C	3	5
COc1ccc(CN2C3CCC2CC(NC(=O)/C=C/c2ccccc2)C3)c(OC)c1 (stereo not given)	7	1
Cc1ccc(OC(C)C(=O)N(C)C2CCS(=O)(=O)C2)c(Br)c1 (stereo not given)	-1	1
Cn1c(SCC(=O)N2CCN(c3ccc(F)cc3)CC2)nc2c(-c3ccccc3)c[nH]c2c1=O	-6	-1
Cc1onc(-c2ccccc2Cl)c1C(=O)Nc1ncc([N+](=O)[O-])s1	6	8
CC(C)CS(=O)(=O)c1ncc(CN2CCC[C@H]2C(N)=O)n1Cc1ccccc1	9	12
CN1CC2(CCN(C(=O)c3ccc(CC4CCCNC4)cc3)CC2)OC1=O (stereo not given)	-2	3
Cc1ccccc1C1c2ccsc2CCN1C(=O)CN(C(=O)c1ccc(C(C)(C)C)cc1)C(C)C (stereo not given)	32	23
CCCn1nc2c(cc1=O)CN(CC(O)CN1CCOCC1)CC2 (stereo not given)	4	8
CCOC(=O)c1c(N)sc2c1CCN(C(C)C)C2	-3	-1
CCN(C)C(=O)NCCc1ccc(F)cc1F	3	6
O=C(c1c(F)cccc1Cl)N1CCc2ccccc2C1c1ccccc1F (stereo not given)	4	11
CCOC(=O)C1(Cc2ccccc2)CCN(Cc2ccc(C#CC(C)(C)O)s2)CC1	9	15
CCOCCCn1c(SCc2nccc(OC)c2OC)nc2cc(S(=O)(=O)N3CCCC(C)C3)ccc21 (stereo not given)	-5	-2
O=[N+]([O-])c1ccc(-c2nc3nc4ccccc4nc3n2CCCN2CCOCC2)cc1	-5	8
CCOc1ccc(NC(=O)N2CCC(Cc3ccc(OC)cc3)CC2)cc1	-12	-3
CN1CCC(N(C)C(=O)CCC2CCCN(C(=O)/C=C/c3ccc(Cl)cc3)C2)CC1 (stereo not given)	3	6
Cc1cc(C)cc(NC(=O)CSc2ccc(-c3cccnc3)nn2)c1	-5	3
COc1ccc2oc(=N)c(C(=O)Nc3cccc(C(F)(F)F)c3)cc2c1	-7	-2
Cc1ccc(S(=O)(=O)n2cccn2)c(C)c1	42	0
COc1ccc(N2CC(NC(=O)Nc3ccccn3)CC2=O)cc1 (stereo not given)	4	7
C/C=C\Cn1c(C(=O)N2CCN(C(=O)C34CC5CC(CC(C5)C3)C4)C(C)C2)cc2ccsc21 (stereo not given)	3	-1
C=CCn1c(=NC(=O)c2ccc(C#N)cc2)sc2cccc(C)c21	2	3
COC(=O)C1CCN(C(=O)c2ccc(-c3cc(-c4cccc(C(F)(F)F)c4)n[nH]3)cc2)CC1	13	2
COC(=O)CCc1c(C)nn(-c2nc(C)c(C)c(=O)[nH]2)c1C	-8	-7
COc1ccc(CNC(=O)c2c(O)nc3cc(C)ccn3c2=O)cc1	30	4
CC(=O)OC[C@@]12[C@@H](OC(C)=O)C[C@@H](C)[C@](C)([C@@H]3C[C@H]4CCO[C@H]4O3)[C@H]1CCC[C@]21CO1	-14	-7
CN(Cc1csc(-c2ccccc2)n1)C(=O)Cn1nnnc1CN1CCOCC1	-2	1
OCCn1c(SCCSc2nc3ccccc3n2CCO)nc2ccccc21	-12	2
CC1=NC2=C(C(=O)CCC2)C(c2cccc(F)c2)C1C(=O)OC1CCCC1 (stereo not given)	-4	-1
Cc1n[nH]c(=S)n1CCNC(=O)CC(C)(C)c1ccccc1	0	-1
Cc1ccc(-c2cc(O)c3c(c2)CN(C(=O)c2cccc(F)c2)CCO3)s1	3	5
O=C1CCN(c2nc(/C=C/c3ccccc3)nc3sc4c(c23)CCCC4)CCN1	1	2
Cc1oc(-c2ccc(Cl)cc2)nc1CSc1nc(-c2ccncc2)cc(=O)[nH]1	-3	-1
Cc1ccc(Cl)c(Oc2cc(N3CCN(CCN4CCOCC4)CC3)ncn2)c1	-9	-10
Cc1ccc(C)c(S(=O)(=O)N(C)C2(C)CCS(=O)(=O)C2)c1 (stereo not given)	39	1
CCCN(C)c1cc(-c2ccccc2)nc(SCc2cccc(C(=O)NCc3ccc4c(c3)OCO4)c2)n1	-3	8
NC(=O)c1oc2ccccc2c1N	-1	2
CCC(CC)NC(=O)COc1ccc(C(=O)OC)cc1	-1	3
Cc1noc(-c2cccs2)c1C(=O)NCCCN1CCOCC1	12	17
COc1cccc(NC(=O)NCCN2CCN(c3nc(Cc4ccc(C)cc4)ns3)CC2)c1	17	14
CCOC(c1ccccc1)c1ccc2c(c1)CN(C(=O)c1ccc(OC)nc1OC)CCO2 (stereo not given)	-2	2
C[n+]1ccn(Cc2cc(=O)oc3cc(Br)ccc23)c1	6	5
O=C1c2ccccc2-c2ccc(OCc3ccc(-c4nccnc4NS(=O)(=O)c4ccc(Oc5ccccc5)cc4)cc3)cc21	26	-5
COC(=O)c1ccccc1NC(=O)N1CCN(C(C)c2ccccc2)CC1 (stereo not given)	2	12

The list goes on.
Structure	NPYLR7 ag max-min	NPYLR7 ag
CCN(CC(=O)NC(C)C)C(=O)CCc1ccc(-c2ccc(OC)cc2)o1	-1	4
CCC(C)Nc1nc(OC)nc(N(C#N)CC(=O)N(c2ccccc2)C(C)C)n1 (stereo not given)	18	17
Cc1cccc(Cn2cccc(C(=O)N(C)Cc3ccc(O)cc3)c2=O)c1	15	1
c1ccc(O[C@H]2CN(C3CCOCC3)[C@H]3Cc4c([nH]c5ccccc45)[C@@H]2C3)nc1	29	32
Cc1ccc2sc(N(CCCn3ccnc3)C(=O)c3cccc(F)c3)nc2c1C	-19	-10
Cc1cnc(N(C)CC2CCCO2)nc1N(C)C (stereo not given)	14	19
COCC(O)CN(CC(=O)N1CCc2sccc2C1COc1cccc(OC)c1)C1CC1 (stereo not given)	13	4
Cc1ccc(C)c(Cn2c(=O)c3c(nc4n(CC5CCCO5)c(C)cn34)n(C)c2=O)c1 (stereo not given)	3	0
CSc1ncc(CNCCc2cccc(Cl)c2)c(N2CCCC2)n1	19	23
C=CCN1C(=O)NC(c2cccc(Cl)c2)C2=C1CN(CC(=O)NCCOc1ccccc1)C2=O (stereo not given)	1	-1
Cc1cc(C)c[n+](C2=C(c3c(C)[nH]n(-c4ccccc4)c3=O)C(=O)N(c3ccccc3)C2=O)c1	9	12
COc1ccc(NC(=O)Cn2cnc([N+](=O)[O-])n2)c(OC)c1	-16	-12
O=C1SC(Nc2cccc(Br)c2)C(=O)N1c1ccccc1 (stereo not given)	4	8
CCCC(=O)N1CCc2nc(Cc3cccc(C)c3)[nH]c(=O)c2C1	-2	-4
CCOc1ccc(-c2nc(N)ncc2Oc2ccc(OC)cc2)c(O)c1	-2	1
C=Cc1ccc(Cn2cc(C(=O)NCc3ccc4c(c3)OCO4)sc2=O)cc1	7	12
COc1ccc(CCNC(=O)CN(C)c2nc(Cc3ccc(C)cc3)ns2)cc1OC	-9	-2
CCN(CC)S(=O)(=O)c1ccc2c(c1)nc(SCC(N)=O)n2C(C)C	0	4
O=C(OCc1ccccc1)N1CCN(c2c3c(nc4ncnn24)CCC3)CC1	11	21
Cc1cccc(NC(=O)CNC(=O)CN(Cc2ccc(F)cc2)C(=O)CCc2ccccc2)c1	2	6
COC(=O)CSc1nc2sc3c(c2c(=O)n1C(C)C)CCC3	2	-4
Cc1nc(C(=O)Nc2ncccc2I)cs1	0	2
C=C(C)COc1ccc(-c2ncncc2-c2ccc(Cl)cc2)c(O)c1	-2	3
COc1cc(NC(=O)N(CC(=O)N(CCc2ccc(OC)c(OC)c2)Cc2ccc(C)s2)C2CC2)cc(OC)c1	11	5
O=C(COc1ccccc1)N1CCc2sccc2C1c1cccs1 (stereo not given)	6	3
COC(=O)NC1(C(F)(F)F)Oc2cc(Cl)c(Cl)cc2O1	7	5
O=c1[nH]c(Nc2ccc(Br)cc2)nnc1Cc1ccc(Cl)cc1	0	1
CCOC(=O)C(=O)N1CCN(Cc2cc(=O)c(OCc3cc(C)cc(C)c3)co2)CC1	7	24
O=S(=O)(c1cccc(Cl)c1)N1CCN(CCc2ccccn2)CC1	6	6
CCC(C)NC(=O)C(NC(=O)c1ccc(OC)cc1)C1CCN(C(=O)c2ccc(C(F)(F)F)cc2)CC1 (stereo not given)	-4	-5
Cc1cccc(CN2CCN(Cc3cn[nH]c3-c3ccccc3)CC2)c1	4	6
c1cnc(NN=C2C3CC4CC(C3)CC2C4)nc1	7	10
C=CCn1c(C)nnc1SCc1nc2sc3c(c2c(=O)[nH]1)CCC3	12	7
O=C(OCc1nc(C(=O)NCc2ccco2)cs1)c1ccccc1	-18	-9
Cc1cc(=O)n(C(C)C(=O)N2CCOCC2)c2c(C)cccc12 (stereo not given)	-11	-10
CN(Cc1ccc2nsnc2c1)Cc1nc(-c2ccc3c(c2)OCO3)no1	4&-2	7&4
Cc1ccc(S(=O)(=O)N2CCC(C(=O)N3CCCC(C)C3)CC2)cc1 (stereo not given)	-4	-2

The list is partial. The share of hits here may be higher or lower than overall.
